KCNQ2 block: KCNQ2 potassium channel inhibitors, primary screen, cell-based, CHO-K1, FluxOR thallium flux, B-score (AID 2156); O88943; 20 min; hits give low values; only compounds with negative scores are shown here; some inactives read as strong as hits; B-score at 10 µM; 310,000 tested, 1.1% active;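 active means fluorescence ratio B-score at most minus 3 library SDs, with starting brightness B-score within 2 library SDs, cut at about -5.5 in these data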
Target sequence (O88943 whole entry, looked up): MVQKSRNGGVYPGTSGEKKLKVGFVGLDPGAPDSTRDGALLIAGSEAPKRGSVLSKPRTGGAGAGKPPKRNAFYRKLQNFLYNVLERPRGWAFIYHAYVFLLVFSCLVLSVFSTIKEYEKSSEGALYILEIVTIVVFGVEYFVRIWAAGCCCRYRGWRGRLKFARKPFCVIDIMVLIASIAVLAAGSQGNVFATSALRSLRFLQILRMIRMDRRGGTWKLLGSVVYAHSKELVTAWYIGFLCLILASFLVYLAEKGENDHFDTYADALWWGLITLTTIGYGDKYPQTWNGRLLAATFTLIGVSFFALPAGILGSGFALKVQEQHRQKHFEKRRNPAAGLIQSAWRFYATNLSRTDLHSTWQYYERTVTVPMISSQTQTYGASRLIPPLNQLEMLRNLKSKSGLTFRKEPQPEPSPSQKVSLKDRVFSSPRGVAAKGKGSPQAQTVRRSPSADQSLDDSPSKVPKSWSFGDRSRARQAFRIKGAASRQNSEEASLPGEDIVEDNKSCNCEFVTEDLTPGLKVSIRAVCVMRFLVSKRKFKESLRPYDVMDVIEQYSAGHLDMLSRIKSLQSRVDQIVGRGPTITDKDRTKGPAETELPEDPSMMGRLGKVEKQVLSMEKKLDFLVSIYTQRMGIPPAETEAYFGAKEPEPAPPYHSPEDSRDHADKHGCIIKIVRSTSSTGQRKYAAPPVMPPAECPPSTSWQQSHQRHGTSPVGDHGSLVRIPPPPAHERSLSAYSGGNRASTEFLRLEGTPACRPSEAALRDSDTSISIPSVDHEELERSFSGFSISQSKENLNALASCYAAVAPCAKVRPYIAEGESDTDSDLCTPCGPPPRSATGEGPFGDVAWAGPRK
KCNQ2 block baseline: second read-out of KCNQ2 block, no call of its own (marks repeat the call); B-score; measured here: initial fluorescence intensity artifact check;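 brightness before thallium and not channel activity; 0 = typical well and far values either way flag optical interference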
An asterisk follows results filed as active; i = inactive.

Every second line gives: KCNQ2 block	KCNQ2 block baseline
#1 COc1ccc(OCC(O)CNC(=O)Nc2ccccc2)cc1 (stereo not drawn)
    i	-1.2
#2 CC(=O)C1=C(O)C(=O)N(c2ccc(Br)cn2)C1c1cccc([N+](=O)[O-])c1 (stereo not drawn)
    i	-0.44
#3 Cc1ccc(NC(=O)c2cc(-c3ccccc3)n[nH]2)cc1
    i	1.1
#4 Cc1nn(C(=O)C(C)N2C(=O)c3ccccc3C2=O)c(C)c1Br (stereo not drawn)
    i	0.12
#5 Cc1ccc(C)c(NC(=S)N2CCC(NC(=O)c3ccco3)CC2)c1
    i	1.1
#6 Cc1sc2nc(CSC(C)C(=O)Nc3ccc(C(N)=O)cc3)[nH]c(=O)c2c1C (stereo not drawn)
    i	1.1
#7 CCOc1ncccc1C(=O)OC(C)C(=O)Nc1ccc(CC)cc1 (stereo not drawn)
    i	-0.61
#8 COc1cccc(Oc2ccc(N)cc2)c1
    i	1.4
#9 CC1CCN(C(=O)c2cccc(S(=O)(=O)N3CCCc4ccccc43)c2)CC1
    i	0.71
#10 Cc1ccc2c(CC(=O)OCC(=O)N(CC(C)C)c3c(N)n(Cc4ccccc4)c(=O)[nH]c3=O)coc2c1
    i	0.33
#11 C(=N\n1cnnc1)/c1ccc(N2CCOCC2)cc1
    i	0.67
#12 O=C(C1CC2CCC1C2)N1CCN(Cc2ccc3c(c2)OCO3)CC1 (stereo not drawn)
    i	2.5
#13 COc1cc(C(=O)Nc2nnc(C3=COCCO3)o2)cc(OC)c1OC
    i	1.4
#14 COc1ccccc1NC(=O)N1CCc2[nH]c3ccc(Cl)cc3c2C1
    i	-0.43
#15 C[C@H]1Oc2ccccc2C(=O)C1C(=O)c1ccccc1 (stereo partly drawn)
    i	-1.1
#16 COCCN(C(=O)COC(=O)CCC(=O)c1ccc(C)cc1)c1c(N)n(Cc2ccccc2)c(=O)[nH]c1=O
    i	1.1
#17 CCC1=NNC(=O)C(CC(=O)Nc2ccccc2)c2cc(OC)c(OC)cc21 (stereo not drawn)
    i	1.6
#18 OCCSc1nncn1/N=C/c1c[nH]c2ccccc12
    i	-0.47
#19 CC(CC(=O)N(C)CC(=O)Nc1ccc(N2CCOCC2)cc1)c1ccccc1 (stereo not drawn)
    i	0.04
#20 O=C(CCNS(=O)(=O)c1ccccc1)N1CCN(c2ccccc2)CC1
    i	-0.09
#21 O=C(NCc1ccc(Cl)cc1)C1CCCO1 (stereo not drawn)
    i	-0.71
#22 CCCCCCSc1ccc(-c2nc3ccccn3c2NCCCC)cc1
    i	0.06
#23 CCc1c(O)nc(SCC(=O)c2ccccc2)n(-c2ccccc2)c1=O
    i	3.6
#24 CC(=O)NCCNC(=O)c1ccc2c(c1)S(=O)(=O)c1ccccc1C2=O
    i	-1
#25 O=C(CSc1n[nH]c(=O)[nH]c1=O)N/N=C/C=C\c1ccccc1
    i	1
#26 CCCCN1C(=O)C2(NNc3ccccc3O2)c2ccccc21 (stereo not drawn)
    i	0.73
#27 C=CCn1c(SCC(=O)N2CCN(c3ccccc3)CC2)nnc1-c1ccco1
    i	-0.07
#28 Cc1cccc(C)c1OCc1cc(C(=O)N2CCC(c3ccccc3)CC2)no1
    -9.2*	1.9*
#29 CSCCC(NC(=O)c1ccccc1Cl)C(=O)N(C)CC(=O)Nc1ccc(N2CCOCC2)cc1 (stereo not drawn)
    i	-1.7
#30 Oc1ccc(-c2nc3cnccn3c2Nc2ccc3c(c2)OCCO3)cc1
    i	0.42
#31 Cn1c(=O)c(=O)n(C)c2cc(S(=O)(=O)NCCc3ccccc3)ccc21
    i	0.54
#32 O=C(NCc1ccc(Cl)cc1)C(=O)NCC1OCCCN1S(=O)(=O)c1cccs1 (stereo not drawn)
    i	-2.8
#33 COc1ccc(-c2c3c(=O)n(C)c(=O)n(C)c3cn2C2CCCCC2)cc1
    i	-1.5
#34 Cc1nc2c3cc(F)ccc3n(Cc3ccc(F)cc3)c2s1
    i	-0.44
#35 COc1ccccc1Oc1nc2ccccn2c(=O)c1/C=C(\C#N)C(=O)Nc1c(C)n(C)n(-c2ccccc2)c1=O
    i	2.2
#36 CC(C)CN(C(=O)CCc1ccccc1Cl)c1c(N)n(Cc2ccccc2)c(=O)[nH]c1=O
    i	-0.11
#37 Cc1cc(C(=O)OCC(=O)NCc2ccccc2Cl)c(C)o1
    i	0.47
#38 CCOC(=O)/C(=C/c1ccc(N2CCC(c3ccccc3)=N2)cc1)C(C)=O
    i	2
#39 Cn1c(NCc2ccco2)nc2c1c(=O)n(Cc1ccc(Cl)cc1Cl)c(=O)n2C
    i	1.2
#40 CN1CCN(CC(=O)N2c3ccccc3Sc3ccccc32)CC1
    i	0.75
#41 CCCCc1c(C)nc2nc(SCc3ccc(Cl)cc3)[nH]n2c1=O
    i	0.46
#42 CCOC(=O)c1ccc2c(c1)N(C)C(=O)c1ccccc1S2
    i	-1.7
#43 CCCCCCCC(=O)NNC(=O)c1c(O)c2ccccc2[nH]c1=O
    i	-2
#44 O=C(Nc1ccc(S(=O)(=O)Nc2ccccc2)cc1)C1COc2ccccc2O1 (stereo not drawn)
    i	0.62
#45 CCN1C(=O)C(F)(CC)C(=O)c2ccccc21 (stereo not drawn)
    i	0.45
#46 Cc1[nH]nc2c1C(CCc1ccccc1)C(C#N)=C(N)O2 (stereo not drawn)
    i	-0.65
#47 O=C(NCc1cccnc1)C1CC(=O)N(c2ccc(Cl)cc2)C1 (stereo not drawn)
    i	0.61
#48 Cc1cccc(-n2c(SCC(N)=O)nc3c(c2=O)C2(CCCCC2)Cc2ccccc2-3)c1
    i	-0.69
#49 Cc1ccc(CN(C)C(=O)c2c(C)nn(-c3ccccc3)c2C)cc1
    i	0.21
#50 CC(=O)Cc1nsc(NC(=O)c2ccc(COc3ccccc3)o2)n1
    i	2.1

Overlap with the part before: 6 entries, then new ones.
Every second line gives: KCNQ2 block	KCNQ2 block baseline
#45 CCN1C(=O)C(F)(CC)C(=O)c2ccccc21 (stereo not drawn)
    i	0.45
#46 Cc1[nH]nc2c1C(CCc1ccccc1)C(C#N)=C(N)O2 (stereo not drawn)
    i	-0.65
#47 O=C(NCc1cccnc1)C1CC(=O)N(c2ccc(Cl)cc2)C1 (stereo not drawn)
    i	0.61
#48 Cc1cccc(-n2c(SCC(N)=O)nc3c(c2=O)C2(CCCCC2)Cc2ccccc2-3)c1
    i	-0.69
#49 Cc1ccc(CN(C)C(=O)c2c(C)nn(-c3ccccc3)c2C)cc1
    i	0.21
#50 CC(=O)Cc1nsc(NC(=O)c2ccc(COc3ccccc3)o2)n1
    i	2.1
#51 Cc1cc(NC(=O)CSc2ccc3ccccc3c2)no1
    i	-0.72
#52 CCOCCn1c(CN(C)Cc2ccccc2)nc2c1c(=O)n(C)c(=O)n2C
    i	-2.2
#53 COc1cc(CN2CCC(CO)(CCOc3ccccc3)CC2)cc(OC)c1OC
    i	-0.44
#54 CC1CCCC(C)N1C(=O)COC(=O)C1CCN(S(=O)(=O)c2ccc3c(c2)OCCO3)CC1 (stereo not drawn)
    i	1.4
#55 OC(COc1cccc(OCC(O)CN2CCOCC2)c1)CN1CCOCC1 (stereo not drawn)
    i	-2.5
#56 COc1ccccc1C1OC(c2cccc([N+](=O)[O-])c2)=NN1C(C)=O (stereo not drawn)
    i	0.01
#57 CN1CCCc2cc3c(C(F)(F)F)cc(=O)oc3nc21
    i	17
#58 CC(NC(=O)NC1CCCCC1)C(c1cccs1)N1CCN(Cc2ccccc2)CC1 (stereo not drawn)
    i	1.9
#59 Cc1ccc(NC(=S)N(CCN(C)C)Cc2cccs2)cc1
    i	-1.3
#60 Cc1nc(-c2ccc(NC(=O)/C=C\C(=O)O)cc2)cs1
    i	0.08
#61 COc1cc(/C=N/n2c(-c3ccc4c(c3)NC(=O)CO4)csc2=Nc2cccc(C)c2)ccc1O
    i	-0.15
#62 Clc1cccc(Cl)c1CSc1cc2c(nn1)-c1ccccc1CC2
    -8.5*	-2*
#63 Cc1ccc(NS(=O)(=O)c2ccc(Br)cc2)nc1
    i	-0.88
#64 CN1C(=O)c2ccccc2C(C(=O)NCCCN2CCCC2)C1c1c[nH]c2ccccc12 (stereo not drawn)
    i	-0.44
#65 COc1ccc(S(=O)(=O)Nc2ccc3c(c2)OCO3)cc1OC
    i	0.27
#66 Cc1c(Br)c([N+](=O)[O-])nn1CC(=O)NCC1CCCO1 (stereo not drawn)
    i	0.88
#67 C/C(=N/NC(=O)c1ccc(Br)o1)c1cccc(NC(=O)c2ccc(C)o2)c1
    i	1.4
#68 COc1cc(NC(=O)c2ccccc2)c(OC)cc1NC(=O)CN1CCCCC1
    i	0.69
#69 COc1ccccc1-c1nc(-c2ccccc2)nc(N2CCN(C)CC2)c1C#N
    i	-1.8
#70 COC(=O)C1CCC(=S)N1C(=O)c1ccccc1 (stereo not drawn)
    i	1.3
#71 COC(c1ccccc1)c1nnc(CCC(=O)NCc2ccc3ncccc3c2)o1 (stereo not drawn)
    i	-3.5
#72 O=C(COC(=O)c1cccc([N+](=O)[O-])c1)Nc1ccc(Cl)cn1
    i	0.31
#73 CC(=O)N1CCN(C(=O)c2cccc(S(=O)(=O)N3CCN(c4ccc(F)cc4)CC3)c2)CC1
    i	0.01
#74 O=C(CC1SC(=Nc2ccccc2F)N(CCN2CCOCC2)C1=O)Nc1ccc(F)cc1F (stereo not drawn)
    i	-1.4
#75 Cc1ccc(CCNC(=O)C2CCC(CNc3c(N4CCC(C)CC4)c(=O)c3=O)CC2)cc1 (stereo not drawn)
    i	1.4
#76 COc1ccc(OCc2cc(C(=O)N3CCCCCCC3)no2)c(Cl)c1
    i	-0.08
#77 O=C(Nc1ccccc1C(=O)N1CCCCCC1)c1cccc([N+](=O)[O-])c1
    i	-0.94
#78 COCCNC(=O)C1Cc2c(ccc3ccccc23)O1 (stereo not drawn)
    i	-0.66
#79 O=C(Cc1c(F)cccc1Cl)Nc1ccon1
    i	-0.88
#80 COc1ccc(Br)cc1/C=N/NC(=O)c1nc(-c2ccccc2)n2c1CCCCC2
    i	-0.65
#81 CC1(C)Oc2ccc(C(=O)NC3CC3)cc2N(CC(=O)N2CCOCC2)C1=O
    i	0.24
#82 CC1(C)C(=O)Nc2ccccc2N1C(=O)COC(=O)Cn1cnc2ccccc2c1=O
    i	2.1
#83 O=C(c1ccc(NC(=S)Nc2ccc(F)cc2F)cc1)N1CCOCC1
    i	0.13
#84 O=c1oc(-c2cccs2)nc2ccccc12
    i	0.73
#85 O=C(NCCc1ccc(Cl)cc1)C1COc2ccccc2O1 (stereo not drawn)
    -6*	0.03*
#86 COc1cccc(OCCn2ccnc2)c1
    i	2
#87 CC(=O)c1ccc(NS(=O)(=O)c2ccc3ccccc3c2)cc1
    i	0.12
#88 O=C(CN1CCC(Cc2ccccc2)CC1)NC(=O)NC1CCCCC1
    i	1.8
#89 CN(C)c1ccc(C2=NOC(CN3C(=O)c4ccccc4S3(=O)=O)C2)cc1 (stereo not drawn)
    i	-1.1
#90 O=C(/C=C/c1cccs1)c1ccc([N+](=O)[O-])cc1
    i	0.03

Entries of single compounds, quoted from the list:
Record of O=C(NCCc1ccc(Cl)cc1)C1COc2ccccc2O1 (stereo not drawn) = KCNQ2 block = -6*; KCNQ2 block baseline = 0.03*
Record of O=C(/C=C/c1cccs1)c1ccc([N+](=O)[O-])cc1 = KCNQ2 block = i; KCNQ2 block baseline = 0.03
Record of O=c1oc(-c2cccs2)nc2ccccc12 = KCNQ2 block = i; KCNQ2 block baseline = 0.73

More entries follow:
Every second line gives: KCNQ2 block	KCNQ2 block baseline
#91 O=C1CC(NCc2ccc3c(c2)OCO3)C(=O)N1CCc1ccccc1 (stereo not drawn)
    i	-3.4
#92 CC(C)COc1ccc(C(=O)NCc2ccco2)cc1
    i	-1.1
#93 Cc1ccccc1CC1(CO)CCCN(Cc2ccccc2Cl)C1 (stereo not drawn)
    i	0.02
#94 CC(C)C(=O)Nc1ccc(Nc2ccccc2)cc1
    i	2.5
#95 O=C(c1cccc(S(=O)(=O)N2CCCCC2)c1)N1CCc2ccccc21
    i	0.14
#96 O=C1CCC(=O)N1CN(C(=O)c1ccco1)c1ccccc1
    i	1.7
#97 COc1ccc(C(Nc2ccc(S(=O)(=O)N3CCOCC3)cc2)C(=O)NCCC(C)C)cc1OC (stereo not drawn)
    i	-1.6
#98 CCCN(CC1CC1)C(=O)CSc1ncnc2sccc12
    i	0.23
#99 CC(=O)c1ccc(OCc2cc(C(=O)N(C)C3CCOC3)no2)cc1 (stereo not drawn)
    i	-0.62
#100 COc1ccc(NC(=O)c2cncc(Br)c2)c(S(=O)(=O)N2CCOCC2)c1
    i	-0.19
#101 Cc1cc(C)cc(N2C(=O)CC(Sc3nnnn3-c3ccccc3)C2=O)c1 (stereo not drawn)
    i	-1.8
#102 Cc1ccc(-c2nn(-c3cc(N4CCNCC4)ccc3[N+](=O)[O-])c(=O)c3ccccc23)cc1
    i	1.6
#103 Cn1cccc1Cc1nnc(SCC(=O)N2CCCC2)n1CCc1ccccc1
    i	0.18
#104 CCN(CC)CCn1c(SCC(=O)NCc2ccco2)nc2c(sc3ccccc32)c1=O
    i	-0.29
#105 c1ccc(Nc2nc(N3CCCCC3)nc(N3CCNCC3)n2)cc1
    i	1.5
#106 S=c1[nH]nc(-c2n[nH]c3c2CCC3)n1/N=C/C=C/c1ccccc1
    i	-0.15
#107 Cc1cccc(-c2c3c(=O)n(C)c(=O)n(C)c3cn2-c2ccccc2O)c1
    i	0.06
#108 COc1ccccc1C(=O)Nc1ccc(S(=O)(=O)Nc2onc(C)c2C)cc1
    i	-1.9
#109 CN(C)c1ccc(C(=S)NCc2ccco2)cc1
    i	-1.2
#110 CC1CCN(c2c(NCC3CCC(C(=O)NCc4ccccc4)CC3)c(=O)c2=O)CC1 (stereo not drawn)
    i	-0.25
#111 C#CCOCCOCCOCCNc1nc(N2CCOCC2)nc(N2CCN(C(=O)[C@H]([C@@H](C)CC)n3cc([C@@H](N)CC(C)C)nn3)CC2)n1
    i	1
#112 COC(=O)CN(c1ccc(C)cc1)S(=O)(=O)c1c(C)[nH]c(=O)[nH]c1=O
    i	0.8
#113 COC(=O)c1sc(N(C)C)c(C#N)c1-c1ccccc1
    i	0.8

Screens as filed in PubChem.

Not all compounds are listed; rates above refer to the full screens.
